Compound activity from PubChem BioAssay.
KCNQ2 block: KCNQ2 potassium channel inhibitors, primary screen, cell-based, CHO-K1, FluxOR thallium flux, B-score (AID 2156) | B-score at 10 µM | O88943 | 20 min; active compounds read low; only compounds with negative scores are shown here; some inactives read as strong as hits | 310,000 compounds, 1.1% hits;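 active = fluorescence ratio B-score at most minus 3 library SDs, with starting brightness B-score within 2 library SDs, cut at about -5.5 in these data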
Target sequence (O88943 whole entry, looked up): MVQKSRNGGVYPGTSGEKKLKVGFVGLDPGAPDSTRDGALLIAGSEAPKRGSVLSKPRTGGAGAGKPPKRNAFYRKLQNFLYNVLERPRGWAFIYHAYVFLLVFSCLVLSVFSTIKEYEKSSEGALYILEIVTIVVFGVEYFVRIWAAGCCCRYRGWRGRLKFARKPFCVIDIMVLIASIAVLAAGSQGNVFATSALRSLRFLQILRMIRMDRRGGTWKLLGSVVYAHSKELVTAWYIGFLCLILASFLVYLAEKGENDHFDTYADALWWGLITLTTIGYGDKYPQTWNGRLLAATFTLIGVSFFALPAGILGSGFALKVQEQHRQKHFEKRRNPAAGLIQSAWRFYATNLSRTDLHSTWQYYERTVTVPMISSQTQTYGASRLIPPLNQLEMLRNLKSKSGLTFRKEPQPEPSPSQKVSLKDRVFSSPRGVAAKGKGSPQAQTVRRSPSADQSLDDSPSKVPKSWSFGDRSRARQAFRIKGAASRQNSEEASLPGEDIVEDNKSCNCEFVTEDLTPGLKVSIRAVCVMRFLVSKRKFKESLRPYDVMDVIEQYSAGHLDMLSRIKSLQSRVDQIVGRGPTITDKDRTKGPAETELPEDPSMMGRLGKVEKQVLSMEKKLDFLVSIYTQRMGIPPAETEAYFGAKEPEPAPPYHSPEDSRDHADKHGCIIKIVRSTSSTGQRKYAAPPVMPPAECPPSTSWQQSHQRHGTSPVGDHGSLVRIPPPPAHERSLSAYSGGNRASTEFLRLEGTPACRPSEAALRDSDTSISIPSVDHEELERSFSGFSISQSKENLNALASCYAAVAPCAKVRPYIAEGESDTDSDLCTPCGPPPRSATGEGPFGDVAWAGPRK
KCNQ2 block baseline: recorded beside KCNQ2 block, whose call it bears; B-score; measured here: initial fluorescence intensity artifact check;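 brightness before thallium and not channel activity; 0 = typical well and far values either way flag optical interference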
The depositor's hits bear a star; i = inactive. Some of the compounds tested; count on the stated rates, not on these rows.

Compound	KCNQ2 block	KCNQ2 block baseline
COc1ccc(NS(=O)(=O)c2cc3c4c(c2)CCN4C(=O)CC3)cc1OC	i	1.3
Cc1ccc(S(=O)(=O)Nc2cccc(N(C)S(C)(=O)=O)c2)cc1[N+](=O)[O-]	i	0.71
CC(C)CCNC(=O)CN(C)S(=O)(=O)c1cccc2nsnc12	i	-0.09
CCC1(C)Cc2nc(Cl)c(C#N)cc2CO1 (stereo not drawn)	i	-1.93
Cc1ccc2nc(SCC(=O)Nc3ccccc3N3CCOCC3)c(C#N)cc2c1	i	-0.02
O=C(OCC(=O)N(CCc1ccccc1)Cc1ccccc1)c1cc(S(=O)(=O)N2CCOCC2)ccc1F	i	-0.03
CC(C)OC(=O)c1cc(NC(=O)C2C3C=CC(O3)C2C(=O)O)cc(C(=O)OC(C)C)c1 (stereo not drawn)	i	-0.19
Cc1cc(C)c(-c2csc(NC(=O)COC(=O)c3ccc4c(c3)OCO4)n2)c(C)c1	i	0.09
CCOC(=O)C1=C(C)N=c2s/c(=C/c3ccccc3)c(=O)n2C1c1ccc(OC)c(OC)c1 (stereo not drawn)	i	-0.4
COc1cccc(NC(=O)C2CCC(CNS(=O)(=O)c3cccs3)CC2)c1 (stereo not drawn)	i	-0.62
Cc1ccc(NC(=O)CN2CCCCCC2)cc1Br	i	1.78
COc1cccc(NC(=O)c2cccc(C)c2[N+](=O)[O-])c1	i	0.5
O=C(CN1CCC(n2nnc3ccccc32)CC1)NCc1cccs1	i	-1.31
COc1ccc(NC(=O)c2ccc(-c3ccccc3)cc2)cc1S(=O)(=O)N1CCOCC1	i	-0.04
O=C(O)CNc1nc(Cl)ccc1[N+](=O)[O-]	i	0.19
O=c1oc2ccccc2cc1-c1ccc(O)cc1	i	-1.64
CCCc1c(C(=O)N2CCN(c3ccccc3OC)CC2)cnn1-c1ccccc1	i	-1.52
CC(=O)NC(CCS(C)(=O)=O)C(=O)N1CCc2ccccc21 (stereo not drawn)	i	0.38
O=C(Cc1ccccc1[N+](=O)[O-])OCC(=O)c1c[nH]c2ccccc12	i	0.48
O=C(CSc1ccccc1)NCCSCc1ccccc1	i	-1.5
Cc1cc2nnc(SCC(=O)N3CCOCC3)n2c2ccccc12	i	-0.32
COc1cccc(OCC(=O)N(C)Cc2nc(-c3cccc(C)c3)no2)c1	i	1.22
CN1CCN(CCCNC(=O)CCN2C(=O)COc3ccccc32)CC1	i	-0.36
COc1cc(CNCC(O)c2ccccc2)ccc1OCc1ccc(Cl)nc1 (stereo not drawn)	i	1.76
Cc1ccc(C(=O)N2CCN(c3ccc(C(F)(F)F)cn3)CC2)c(C)c1	i	-0.13
O=S(=O)(NCCc1ccncc1)c1ccccc1	i	-0.7
Cc1ccc(S(=O)(=O)N2CCN(S(=O)(=O)N3CCOCC3)CC2)cc1C	i	-0.45
COc1ccc(CNC(=O)/C(C#N)=C2\N=C(NC(=O)c3cccs3)c3ccccc32)cc1	i	1.42
COc1ccc(OCC(=O)Nc2ccccc2-c2ccccc2)cc1	i	0.86
O=c1nc(N(c2ccccc2)c2ccccc2)[nH]c(=O)[nH]1	i	-0.44
O=C(NCc1ccco1)c1cccc(S(=O)(=O)N2CCCC2)c1	i	0.07
Cc1ccccc1OCCNC(=O)c1ccc2ccccc2n1	i	-0.14
O=C1CN(C(=O)c2c(F)cccc2F)C(c2ccc(F)cc2)c2cc(Br)ccc2N1 (stereo not drawn)	i	-0.9
CC1Oc2ccccc2C=C1C1/C(=C(/O)c2ccccc2)C(=O)C(=O)N1CCCN(C)C (stereo not drawn)	i	0.02
O=[N+]([O-])/C=C\c1ccc(N2CCOCC2)cc1	i	-0.38
CCOc1cc(CNc2ncn[nH]2)ccc1OCC(=O)NC(C)(C)C	i	0.84
CCn1c(-c2ccccc2Cl)nn(CC(=O)NCCc2ccccc2)c1=S	i	-0.33
O=C(CCC(=O)NNC(=O)COc1ccc(Br)cc1)NCc1ccccc1	i	-0.75
COc1cc(C)ccc1OCCOCCOc1ccc(C)cc1[N+](=O)[O-]	i	-0.7
CCOc1ccc(-c2nc(CS(=O)(=O)CC(=O)NCc3ccc(F)cc3)c(C)o2)cc1	i	-0.38
O=C(Nc1ccc2c(c1)CCC2)c1cc(S(=O)(=O)N2CCN(c3ccccc3)CC2)ccc1Cl	i	0.08
O=C(CN1C(=O)S/C(=C\C=C\c2ccccc2)C1=O)Nc1ccc(O)cc1	i	0.24
COC(=O)c1c(-c2cccc(C)c2)csc1NC(=O)C1CCCO1 (stereo not drawn)	i	0.85
CC1CN(S(=O)(=O)c2cccc(-c3csc(-c4ccccc4)n3)c2)CC(C)O1 (stereo not drawn)	i	-0.09
CC(C)(C)c1ccc(C(=O)N/C(=C\c2cccc([N+](=O)[O-])c2)C(=O)Nc2cccc(C(=O)O)c2)cc1	i	0.47
C[C@]12CC[C@@H]3c4ccc(OC(=O)c5ccccc5)cc4CC[C@H]3[C@@H]1CC[C@@H]2O	i	0.47
CC1(C)CC(c2nc(-c3ccc([N+](=O)[O-])cc3)cs2)CCO1 (stereo not drawn)	i	-1.95
CC1CCCC(C)N1/N=C/c1ccc([N+](=O)[O-])cc1 (stereo not drawn)	i	-0.05
CC(=O)Oc1ccc(OC(C)=O)c(S(=O)(=O)c2ccc(C)c(C)c2)c1	i	-1.11
O=C1NC(c2ccc(Br)cc2)Nc2ccccc21 (stereo not drawn)	i	0.98
CCOC(=O)c1ccccc1Nc1cn(C(C)=O)c2ccccc12	i	-2.85
COC(c1ccccc1)c1nc2ccccc2[nH]c1=O (stereo not drawn)	i	2.46
C=CCN1N=C(c2ccc(NC(=O)c3ccccc3)cc2)CSC1=O	i	0.41
CS(=O)(=O)N(CC(=O)Nc1c(F)cccc1F)c1ccc(C23CC4CC(CC(C4)C2)C3)cc1	i	-0.8
COc1ccc(/C=C/c2ccncc2)c2ccccc12	i	-2.01
CC(=O)Nc1nc(-c2ccc([N+](=O)[O-])cc2)cs1	i	0.09
C=CCNc1nc(Nc2ccc(OC)cc2)nc(OCC)n1	i	-0.2
COC(=O)CN1C(=O)C(C)=C(c2ccc(C)cc2)S1(=O)=O	i	1.02
COc1cccc(OCCOc2ccccc2OC(C)C)c1	i	-0.05
Cc1cc(N(C)C)ccc1N=Nc1ccc(N)cc1	i	-0.77

(next part)
Compound	KCNQ2 block	KCNQ2 block baseline
COc1ccccc1N1CCN(C2CCCN(C(=O)CN3CCCCC3=O)C2)CC1 (stereo not drawn)	i	0.39
C=CCn1c(SCc2c(C)noc2C)nc2sc3c(c2c1=O)CCCCC3	-6.5*	0.64*
Cc1cc(C(=O)OCC(=O)N(C)c2ccccc2)ccc1[N+](=O)[O-]	i	-1.55
Cc1ccc(NC(=O)CN(C)C(=O)c2ccc(Br)o2)cc1	i	1.19
CCOCCCNC(=O)Cc1c(C(=O)O)[nH]c2ccc(Cl)cc12	i	-0.68
Cc1cccc(C)c1NC(=O)CSc1nnnn1-c1ccc(C(=O)O)cc1	i	-0.47
COc1ccccc1NC(=O)CSc1nc(O)cc(=O)n1C	i	0.41
COc1cccc(N2CCN(C(=O)C3CCC(=O)N(C4CCCCCC4)C3)CC2)c1 (stereo not drawn)	i	0.77
O=Nc1c(-c2ccccc2)[nH]n(-c2ccccc2)c1=O	i	0.69
COc1ccc([N+](=O)[O-])cc1NC(=O)CC(c1ccccc1)c1ccccc1	i	-1.08
CCC(C)c1ccc(Nc2ncccc2C#N)cc1 (stereo not drawn)	i	5.59
Cc1cccc(C)c1OCCSc1nc2ccccc2n1CC(=O)O	i	1.36
CN(C)c1cc[n+](CC(=O)c2cccs2)cc1	i	1.02
NC(=S)N/N=C1\CC(c2ccc3c(c2)OCCO3)Oc2ccc(F)cc21 (stereo not drawn)	i	1.24
O=[N+]([O-])c1cc([N+](=O)[O-])c(Oc2ccc(Br)cc2Br)cc1NN1CCCCC1	i	0.29
Cc1csc(NC(=O)CSc2sc3c(O)cc(=O)[nH]c3c2C#N)n1	i	0.15
CCN(CC)S(=O)(=O)c1ccc(OC)c(NC(=O)C(C)Oc2ccc3c(C)cc(=O)oc3c2)c1 (stereo not drawn)	i	-0.18
CN1C(=O)C2(OCCCO2)c2cc(Cl)ccc21	i	-0.39
Cc1cc(C)nc(N2N=C(CSc3ccc(Cl)cc3)CC2=O)n1	i	0.01
Cc1ccc(NC(=O)COC(=O)Cn2nc(C)c([N+](=O)[O-])c2C)c([N+](=O)[O-])c1	i	0.31
CC(C)=CC(=O)OCC(=O)Nc1cc(C)cc(C)c1	i	5.32
CN(C)c1ccc(CCc2ccc(N)cc2)cc1	i	0.11
NNC(=O)CS(=O)(=O)CS(=O)(=O)CC(=O)NN	i	0.75
CCn1cc(C(=O)NC(=S)Nc2ccccc2[N+](=O)[O-])cn1	i	2.29
COc1cc(OC)cc(-c2cc3nc4c(c(N5CCN(c6ncccn6)CC5)n3n2)CCCC4)c1	-6.2*	1.49*
O=C(NNC(=S)Nc1ccc(Cl)cc1)c1cccs1	i	-0.59
CCOc1ccccc1-n1c(SCC(=O)Nc2ccccc2C(=O)O)nc2ccccc2c1=O	i	0.51
COc1cc(SC)ccc1C(=O)Nc1cccc(C2OCCCO2)c1	i	3.19
CCc1ccc(OCC(=O)Nc2ccc3oc(=O)ccc3c2)cc1	i	-0.79
CCc1ccc(C(CNc2nc(C(F)(F)F)nc3ccccc23)N(C)C)cc1 (stereo not drawn)	i	-0.93
O=C1Nc2ccccc2C1C(C[N+](=O)[O-])c1ccccc1 (stereo not drawn)	i	0.44
Cc1cc(OC(=O)C2CC2)c([N+](=O)[O-])c(=O)[nH]1	i	1.34
Cc1ccc(C2(C)NC(=O)N(CC(=O)NC(=O)NC(C)C)C2=O)cc1 (stereo not drawn)	i	0.08
O=C(C1CCCN(S(=O)(=O)c2cccc3cccnc23)C1)N1CCN(c2ccccc2F)CC1 (stereo not drawn)	i	-0.45
COc1ccc(C(=O)N(CCN2CCOCC2)CC(=O)NC2CCCC2)cc1OC	i	0.21
CN1CCN(S(=O)(=O)c2ccc(NC(=O)c3ccc(Br)o3)cc2)CC1	i	0.76
C[C@H](NC(=O)c1nc[nH]c1C(=O)N[C@@H](Cc1ccccc1)C(=O)OCc1ccccc1)C(=O)OCc1ccccc1	i	0.11
O=C(Cn1nnc(-c2cccs2)n1)N1c2ccccc2Sc2ccc(C(F)(F)F)cc21	i	0.23
S=C(NCc1ccc(Cl)cc1)Nc1ccccc1Cl	i	-1.17
COC(=O)COc1cc2ccccc2cc1C(=O)Nc1ccccc1	i	-0.81
CC(C)COc1ccccc1C(=O)NC(CO)C(=O)O (stereo not drawn)	i	-0.04
CN(C(=O)COC(=O)c1n[nH]c2ccccc12)c1ccccc1	i	-1.05
O=C(OCn1nnc2ccccc2c1=O)c1ccco1	i	0.67
Cc1cc(=O)oc2cc(OCC(=O)Nc3ccc4[nH]c(=O)[nH]c4c3)ccc12	i	-0.4
CCC1(COC(NC(=O)c2cccnc2)(C(F)(F)F)C(F)(F)F)COC1	i	-0.05
COc1ccc(C2SCCN2C(=S)Nc2ccc(F)cc2)cc1 (stereo not drawn)	i	-2.05
CN(CC(=O)Nc1cccc(F)c1)C(=O)C1CSC2(C)CCC(=O)N12 (stereo not drawn)	i	-0.62
COc1cc2c(cc1NC(=O)COC(=O)CNC(=O)c1ccccc1)oc1ccccc12	i	-0.84
Clc1ccc(CNCc2cccs2)c(Cl)c1	i	-0.01
Cc1c(C(=O)NCc2ccc3c(c2)OCO3)oc2ccc(S(=O)(=O)N3CCCCCC3)cc12	i	1.07
CCOC(=O)C1=C(C)NC(=O)NC1c1ccc(N(CC)CC)cc1 (stereo not drawn)	i	-0.29
C=CCNc1sc(C(=O)c2ccccc2)c(N)c1-c1nc2ccccc2s1	i	-0.75
CCSc1cc(C)nc2c(-c3ccccc3)c(C)nn12	i	-0.55
COc1cccc2cc(C(C)N(CCCN3CCOCC3)C(=S)Nc3c(C)cccc3C)oc12 (stereo not drawn)	i	-1.69
COCCN1CCn2c(nc3cc(NS(C)(=O)=O)ccc32)C1	i	-0.87
